# Screens: PubChem, National Center for Advancing Translational Sciences (NCATS)
# TRPV1 PAM = HTS Assay for Compounds that Act as Potentiators of the Vanilloid Receptor 1. Transient receptor potential cation channel subfamily V member 1 (Homo sapiens), Q8NER1. TRPV1-expressing cells, Fluo-8 calcium influx, capsaicin EC20 potentiation; host cell line not named in the record; control for the full effect not named in the record. potentiation, % at 8.33 µM. hit rate 0.02% among 320,000; active means potentiation above 80%; inconclusive means 30% to 80%; inactive means below 30%; note: 0% is about no effect
# Target sequence (Q8NER1 whole entry, looked up): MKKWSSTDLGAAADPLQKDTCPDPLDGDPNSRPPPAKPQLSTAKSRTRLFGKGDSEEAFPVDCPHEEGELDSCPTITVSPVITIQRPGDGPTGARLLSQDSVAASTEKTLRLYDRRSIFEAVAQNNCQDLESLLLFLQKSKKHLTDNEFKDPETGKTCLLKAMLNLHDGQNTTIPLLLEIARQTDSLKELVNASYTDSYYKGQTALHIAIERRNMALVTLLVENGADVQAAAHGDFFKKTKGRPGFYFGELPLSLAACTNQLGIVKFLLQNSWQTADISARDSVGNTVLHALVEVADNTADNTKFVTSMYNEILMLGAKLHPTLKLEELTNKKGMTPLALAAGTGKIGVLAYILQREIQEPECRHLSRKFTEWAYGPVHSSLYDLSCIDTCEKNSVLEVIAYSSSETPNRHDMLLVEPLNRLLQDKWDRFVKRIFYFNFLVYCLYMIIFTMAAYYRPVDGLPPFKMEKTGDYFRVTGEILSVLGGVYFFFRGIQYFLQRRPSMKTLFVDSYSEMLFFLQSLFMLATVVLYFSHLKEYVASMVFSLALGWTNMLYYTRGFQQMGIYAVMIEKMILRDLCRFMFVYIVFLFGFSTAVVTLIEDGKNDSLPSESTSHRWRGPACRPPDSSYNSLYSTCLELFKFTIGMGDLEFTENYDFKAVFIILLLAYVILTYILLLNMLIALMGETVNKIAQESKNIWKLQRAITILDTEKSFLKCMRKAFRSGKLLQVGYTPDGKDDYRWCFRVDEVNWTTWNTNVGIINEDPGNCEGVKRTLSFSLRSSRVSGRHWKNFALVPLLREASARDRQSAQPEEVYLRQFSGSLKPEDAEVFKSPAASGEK
#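 Cells expressing TRPV1 were dye-loaded with Fluo-8 and read kinetically: 10 s baseline, 3 min after compound (agonist portion), then 2 min after EC20 capsaicin (allosteric enhancer portion). Calcium-bound dye fluorescence at 480/520 nm.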
# gsp antag = qHTS for Antagonists of gsp, the Etiologic Mutation Responsible for Fibrous Dysplasia/McCune-Albright Syndrome: qHTS. gsp-mutant cells, cAMP HTRF, 30 min; control for the full effect not named in the record. Potency, µM (top dose mostly 76.9 µM), without a hit: at the highest dose activity change, negative = inhibition, actives largely listed as inhibitors. hit rate 0.4% among 340,000. AID 624288, 2012; active = falling curve of any shape with a large fitted effect; inconclusive = falling curve, mostly with a smaller effect; inactive = flat or rising curve; cell line not stated here;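 note: intracellular cAMP measured with PDE inhibitor Ro 20-1724 present during compound exposure; potency is the fitted concentration of half-maximal effect; % is set by controls: 0 for no effect and ±100 for the full control effect; nearly all actives have a fitted effect of over 65% in size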
#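 HTRF cAMP measurement after 30 min RT detection following 30 min, 37C compound treatment alongside […] (added as 300 uM solution) in G418-selected cells seeded at 2000/well and grown 16–24 h.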
# CtBP-E1A blk = qHTS Assay for Inhibitors of the CtBP/E1A Interaction. CtBP / adenovirus E1A interaction (AlphaScreen). AlphaScreen GST-E1A/His-CtBP binding, 1536-well; hits give low values; control for the full effect not named in the record. activity change, % (test concentration not listed). hit rate 0.49% among 340,000; in the data active means activity change below about -65%; inconclusive means about -30% to -65%; inactive means above about -30%; note: % is set by controls: 0 for no effect and ±100 for the full control effect; compound concentration not given in the record
#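 Homogeneous bead-based format: GST-tagged E1A captured on glutathione donor beads, His-tagged CtBP on nickel acceptor beads; compounds precede bead addition by 2 h at 37 °C.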
# ClpP mod = qHTS Assay for Activators of ClpP; ATP-dependent Clp protease proteolytic subunit (Bacillus subtilis (strain 168)), P80244; purified B. subtilis ClpP, FRET peptide cleavage, 20 min; Potency, µM (highest dose often 57.5 µM), without a hit: top-dose activity change, negative = active; hit rate 1.9% among 340,000; active = well fitted falling curve with a large enough effect; inconclusive = small, poorly fitted or top-dose-only effect; inactive = no such curve, though single readings can be large or run the other way; note: potency is the fitted concentration of half-maximal effect; the source files actives as falling curves though it sought activators and does not explain the sign; nearly all actives have a fitted effect of over 65% in size; many hits overshoot -100%
# Target sequence (P80244 whole entry, looked up): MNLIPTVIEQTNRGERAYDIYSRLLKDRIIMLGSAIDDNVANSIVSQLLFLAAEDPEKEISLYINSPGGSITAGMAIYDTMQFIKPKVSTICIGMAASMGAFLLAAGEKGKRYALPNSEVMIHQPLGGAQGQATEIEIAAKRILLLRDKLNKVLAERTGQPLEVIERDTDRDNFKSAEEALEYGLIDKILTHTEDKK
#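 Purified B. subtilis ClpP, 10 microg/mL final in Tris/HCl pH8 with KCl, BSA, glycerol and Tween-20, cleaved an Abz/nitrotyrosine-quenched decapeptide. Fluorescence (ex 320, em 430) was read at 0 and 20 min at room temperature. Delta was normalized to 5.8 microM ADEP and DMSO/no-enzyme controls.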
# gsp agonist = qHTS for Agonist of gsp, the Etiologic Mutation Responsible for Fibrous Dysplasia/McCune-Albright Syndrome: qHTS | gsp mutant cells, cAMP HTRF, 30 min; control for the full effect not named in the record | Potency, µM (top dose mostly 76.9 µM), for the others: at the highest dose activation (cAMP increase), usual class: activators | hit rate 0.13% among 340,000 | AID 624287, 2012; active = well fitted activation curve with a large enough effect; inconclusive = small, poorly fitted or top-dose-only effect, or another doubt; inactive = no such curve, though single readings can be large or run the other way; cell line not stated here;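 note: phosphodiesterase inhibitor Ro 20-1724 added with compounds to block cAMP breakdown; potency is the fitted concentration of half-maximal effect; nearly all actives have a fitted effect of over 60% in size; about a fifth of the inactives were tested at one dose only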
#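 Cells stably selected in G418 were plated at 2000/well, grown 16-24 hr, then given compounds in DMSO with the PDE inhibitor […] (300 uM solution added) for 30 min at 37C; cAMP was read by HTRF.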
# Sfp inh = qHTS Assay for Inhibitors of Bacillus subtilis Sfp phosphopantetheinyl transferase (PPTase). Biochemical Sfp PPTase activity, qHTS. hit rate 3.5% among 310,000. Potency, µM, without a hit: max response, negative = inhibition, usual class: inhibitors. 4'-phosphopantetheinyl transferase ffp (Bacillus subtilis), Q9F4F7; active = well fitted inhibition curve with a large enough effect; inconclusive = small, poorly fitted or top-dose-only effect, or another doubt; inactive = no such curve, though single readings can be large or run the other way;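 note: the enzyme is Sfp with the accession as filed and its product quenches rhodamine fluorescence; potency is the fitted concentration of half-maximal effect; 0% = enzyme reaction without inhibitor and -100% = no enzyme wells; top concentration of the series not given in the record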
#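 Fluorescence-quenching assay with 15 nM Sfp, 5 uM rhodamine-CoA and 12.5 uM BHQ-2-labelled ybbR peptide in pH 7.6 Hepes/MgCl2 buffer. Enzyme was pre-incubated with compound for 15 min at room temperature. Rate was taken from the 30-min fluorescence change (525/598 nm).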
# Menin MLL FP FL = qHTS Assay for Inhibitors Targeting the Menin-MLL Interaction in MLL Related Leukemias: Competition With Fluorescein Labeled MLL-derived Peptide | FP activity change, % at 61.4 µM | 290,000 tested, under 10 active | Fluorescence polarization, fluorescein-MLL peptide displacement from menin; inconclusive = falling polarisation curve, or a change in total fluorescence; inactive = total fluorescence flat and polarisation flat or rising; no compound was filed as active; the % refers to the polarisation; negative = inhibition;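 note: % of control where 0% means no effect; inhibitors lower the polarisation; unlabelled MLL peptide was the positive control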
# * hit, by the source's call; ? = inconclusive; . = not tested or not shown; [ ] = remark or other dose.
SMILES,TRPV1 PAM,gsp antag,CtBP-E1A blk,ClpP mod,gsp agonist,Sfp inh,Menin MLL FP FL
CC1(C)CC(=O)C(C(C2=C(O)CC(C)(C)CC2=O)c2cccnc2)C(=O)C1 (centres undefined),3,-3%,3,-0.2%,?,5%,3.0
O=C(COC(=O)c1ccncc1)NCc1ccccc1,1,6%,0,0.3%,?,0%,14
CCc1ccccc1NC(=O)/C(=C/c1ccco1)c1ccccc1,10,1%[15.4 µM],-4,-3.3%,-17%,45µM*,9.2
Cc1ccc2c(C)ccc(O)c2n1,12,10%,-9,-5.9%,-27%,45µM*,-5.4
Cc1ccc(N2C(=O)C(Cl)=C(N3CCN(C)CC3)C2=O)c(C)c1,-3,7%,-3,-1.6%,7%,9%,-2.2
Cc1cc(C)n(CC(O)Cn2c(C)c(C)c3ccccc32)n1 (centres undefined),-8,3%,-12,32µM*,5%,-26%,-4.8
CCOc1ccc(NC(=O)CSc2nccn(-c3ccc4c(c3)OCCO4)c2=O)cc1,0,-16%,1,-6.0%,2%[15.4 µM],.,.
COc1ccc(N2CCN(c3cc(C)nc4ccc(OC)cc34)CC2)cc1,9,-15%,?,.,-5%[15.4 µM],-13%,0.5
CN(C)C(=O)c1ccc(NC(=O)c2ccccc2-c2ccccc2)cc1,20,8%,1,.,-46%[inhibitor],-2%,-5.9
c1cc2c(c(CC3CO3)c1CC1CO1)OCCOCCOCCOCCO2 (centres undefined),.,.,-1,1.0%,-23%,.,.
O=C(c1cc(-c2cccc(O)c2)on1)N1CCc2ccccc2C1,?,-1%,-8,0.8%,20%,-6%,-1.1
CCCNC(=O)Nc1ccsc1C(=O)OC,15,5%,-3,.,-3%,11%,0.7
O=C(Nc1ccc2c(c1)OCCO2)c1ccc(Br)s1,7,-14%,-1,-1.1%,-6%,-2%,4.4
CCOC(=O)c1c(-c2ccco2)csc1NC(=O)COC(=O)c1cnc(C)cn1,2,3%,-2,-1.8%,-43%[inhibitor],.,.
OC(CNCc1ccc(F)cc1)(c1ccc(F)cc1)c1ccc(F)cc1,3,3%,17,2.9%,0%,-1%,1.3
Cc1cc(C(=O)NNS(=O)(=O)c2cc(C(=O)O)ccc2Cl)c(C)n1-c1ccccc1,3,11%,5,3.1%,1%,.,.
N#CCCN(CCCN1CCOCC1)CN1C(=O)c2ccccc2C1=O,.,.,1,0.3%,?,.,.
CC1=CC(=O)C(C(C)C)=C/C1=N/OS(=O)(=O)c1ccccc1,9,-15%,.,-1.4%,1%,-27%,-2.2
CCOc1ccc(OCCC(=O)NNC(=O)c2ccccc2Cl)cc1,14,9%,4,0.5%,1%,.,.
CCN(CC)S(=O)(=O)N1CCC(C(=O)NC(C)CCc2ccccc2)CC1 (centres undefined),-3,-11%,3,-2.0%,-4%,1%,0.3

# 3 entries from above, with each value named:
> COc1ccc(N2CCN(c3cc(C)nc4ccc(OC)cc34)CC2)cc1
  TRPV1 PAM = 9	gsp antag = -15%	CtBP-E1A blk = ?	ClpP mod = .	gsp agonist = -5%[15.4 µM]	Sfp inh = -13%	Menin MLL FP FL = 0.5
> CN(C)C(=O)c1ccc(NC(=O)c2ccccc2-c2ccccc2)cc1
  TRPV1 PAM = 20	gsp antag = 8%	CtBP-E1A blk = 1	ClpP mod = .	gsp agonist = -46%[inhibitor]	Sfp inh = -2%	Menin MLL FP FL = -5.9
> c1cc2c(c(CC3CO3)c1CC1CO1)OCCOCCOCCOCCO2 (centres undefined)
  TRPV1 PAM = .	gsp antag = .	CtBP-E1A blk = -1	ClpP mod = 1.0%	gsp agonist = -23%	Sfp inh = .	Menin MLL FP FL = .

# (cont.)
SMILES,TRPV1 PAM,gsp antag,CtBP-E1A blk,ClpP mod,gsp agonist,Sfp inh,Menin MLL FP FL
Cc1ccccc1-c1nc(Cc2ccc(Cl)cc2)no1,4,-11%,78,1.0%,-16%,14%,4.0
O=C(CCc1c[nH]c2ccccc12)NCC1CCCO1 (centres undefined),-2,13%,9,-2.7%,?,8%,1.7
CC1CCc2sc(C(=O)NNC(=O)c3ccncc3)cc2C1 (centres undefined),-17,2%,-6,-0.4%,9%,.,.
c1ccc(C[n+]2cccc(-c3ccccc3)c2)cc1,-4,-1%,1,-4.7%,-31%[inhibitor],0%,4.3
COc1cccc(NC(=O)COc2cccc(-n3cnnn3)c2)c1,11,-9%,-4,-1.4%,-9%,5%,-1.3
NS(=O)(=O)c1ccc(CCNC(=O)c2ccc3c(c2)OCO3)cc1,11,19%,-2,.,8%,17%,4.1
O=C(OCCOCCN=C1NS(=O)(=O)c2ccccc21)c1ccc(F)cc1,-1,-5%,-3,.,?,-3%,-6.0
COC(=O)C1=C(C)NC(=O)C1(NC(=O)c1ccncc1)C(F)(F)F (centres undefined),7,-6%,.,1.7%,-8%,21%,-2.8
COc1cccc(/C=N\NC(=O)C2=NNC(=O)C2C)c1O (centres undefined),5,-15%,12,1.1%,-4%,3%,7.3
CC(C)(C)C(=O)Nc1cccc(S(=O)(=O)NC2=NCCC2)c1,13,3%,0,-2.0%,6%[15.4 µM],.,.
Cc1cc(=O)n2c(sc3ccccc32)c1C#N,6,-3%,-3,.,-20%[15.4 µM],-3%,-8.9
COc1ccccc1N1CCN(/N=C/c2cccc(Cl)c2)CC1,3,0%,-19,?,-2%[15.4 µM],0%,0.7
Nc1ccc(N2CCOCC2)cc1C(F)(F)F,0,12%,12,-0.4%,-7%[15.4 µM],15%,0.2
Cc1nc(SCC(=O)N2CCOCC2)c2c3c(sc2n1)CCC3,.,-6%,0,.,19%,.,.
COc1cccc(NC(=O)CCCN2C(=O)C3CC=CCC3C2=O)c1 (centres undefined),-15,-2%,3,-1.6%,-15%,7%,-2.7
Oc1ccc(-c2csc(Nc3ccccn3)n2)cc1,?,3%,-3,.,?,3%,-3.6
Cc1ccc(C2CC(c3cccc(C)c3)n3nc(N)nc3N2)cc1 (centres undefined),-9,0%,-3,-1.9%,-67%[inhibitor],-3%,2.2
CN1CCN(c2ccc(S(=O)(=O)N3CCCCC3)cc2NC(=O)c2ccc3ccccc3c2)CC1,-13,-1%,-19,20µM*,-49%,40µM*,18
CCOc1cc(CNn2c(C)nnc2SCC(=O)NC(C)(C)C)ccc1OCC(=O)NC(C)(C)C,2,-6%,17,.,-1%[15.4 µM],14%,-1.4
Cc1cccc(NS(=O)(=O)c2ccc(Cl)cc2)n1,0,-10%,6,0.2%,-5%[15.4 µM],6%,2.2
c1cc(C2CCN(Cc3nc(-c4ccc5c(c4)OCO5)no3)CC2)ccn1,3,-6%,.,-1.3%,-5%,-7%,-1.9
CCOC(=O)C1C(=O)NC(N2CCN(c3ccccc3)CC2)=NC1c1ccccc1 (centres undefined),1,11%,0,-0.5%,10%,0%,-2.8
O=C(Nc1cccc(Cl)c1)c1cc(S(=O)(=O)NCCc2ccc(Cl)cc2)ccc1F,0,?,11,1.1%,-47%,27%,1.0
O=C(COC(=O)c1cc(S(=O)(=O)N2CCCCC2)ccc1Cl)NCc1ccco1,-9,-11%,0,.,0%[15.4 µM],-21%,-2.3
CC1(C)CC2CC(C)(CN2c2ncnc3ccccc23)C1 (centres undefined),-6,?,4,-0.4%,-33%,-1%,5.4
CN1CCN(CCCNc2nc3ccccc3c3nc(-c4ccccc4)nn23)CC1,.,?,-14,-16%,-6%,.,.
COc1ccc(C(=O)N/C(N)=N/c2nc3ccccc3o2)cc1,-6,12%,-1,?,-5%,-1%,3.4
CCN(CC)c1ncnc2c1ncn2Cc1c(Cl)cccc1Cl,-2,10%,-1,1.1%,-4%,1%,4.5
O=[N+]([O-])c1cccc(-c2cnc3ccccc3n2)c1,4,4%,.,-2.2%,?,2%,-3.4
Cc1noc(C)c1COc1ccc(C(=O)N2CCN(S(=O)(=O)c3ccccc3)CC2)cc1,-13,-19%,.,-0.7%,1%,.,.
COc1ccc(C(=O)OCC(=O)NC2CCCCCC2)c(OC)c1,-13,9%,-3,0.5%,-7%[15.4 µM],.,.
CS(=O)(=O)N(CC(=O)N1CCN(Cc2ccccc2)CC1)c1cccc(Cl)c1,0,-3%,0,0.7%,?,8%,-4.9
Cc1nn(-c2ccccc2)c2sc(C(=O)N3CCc4ccccc4C3)cc12,25,0%,11,-15%,24%,?,1.3
O=C(Nc1cccc2ccccc12)NC1CCCCC1,-1,6%,0,-11%,3%[15.4 µM],6%,0.0
COC(=O)c1cc(Cl)c(NC(=O)Cc2ccccc2)cc1OC,6,-8%,-17,1.5%,-13%[15.4 µM],2%,-1.6
CC(C)Sc1nc2c(cnn2-c2ccc(Cl)cc2)c(=O)[nH]1,20,4%,-4,.,-57%[inhibitor],2%,-3.7
COc1ccc(C(=O)NCc2nnc(SCC(=O)c3ccccc3)o2)cc1,5,7%,1,0.9%,?,-6%,-1.1
Cc1ccnc(N2C(=O)C3C4CC(C(Br)C4Br)C3C2=O)c1 (centres undefined),.,0%,1,0.8%,?,27%,7.5
COc1ccc(Cc2nnc(SCC(=O)N3CCCC3)o2)cc1,3,9%,5,0.1%,-27%,20%,1.1
Cc1ccc(S(=O)(=O)N2[C@@H](c3ccc(F)cc3)C(C(=O)O)=CC[C@H]2c2cccs2)cc1,-21,-20%,1,-0.9%,-13%,.,.
Cn1c(N)c(C(=O)COC(=O)C2(c3ccc(F)cc3)CCCC2)c(=O)n(C)c1=O,-12,4%,0,0.8%,?,-18%,-0.3
O=S(=O)(c1ccc(Cl)s1)N1CCN(c2ncccn2)CC1,.,-1%,11,-11%,5%,22%,3.4
